BJeLR lethal = kills HRASV12-expressing BJeLR cells | AID 1554 | BJeLR (HRASV12) viability, CellTiter-Glo ATP luminescence, 48 h; reference of the scale not given here | hit rate 0.17% among 300,000 | inhibition, % (concentration not given with the values);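 active = replicate mean above 50%; inconclusive = above 50% but judged a plate artefact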;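 note: 50 nL library stock added to about 25 µL; numbers are from one replicate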
Mtb hypoxia inh = reduces hypoxia-regulated biosensor signal in M. tuberculosis. M. tuberculosis hypoxia-regulated fluorescent reporter, fluorescence. fluorescence inhibition, % (test concentration not listed). hit rate 0.1% among 300,000. AID 1159583;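 active = 35 to 45% if threefold the growth effect, above 45% if 1.5-fold the growth effect; inactive = the rest, general growth blockers included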;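 note: wells of about 50 µL received 100 nL stock; 0% = vehicle wells and 100% = reference inhibitor wells; whole bacteria with a GFP reporter of the hypoxia response; strong numbers were not always called active; many hits fall short of the cut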
ugtP null kill = growth inhibition of S. aureus ugtP deletion strain | hit rate 0.54% among 330,000 | growth inhibition, % (concentration not given with the values) | S. aureus RN4220 ugtP deletion, OD600 growth, 16 h; some inactives read as strong as hits | AID 1259309;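 active = z-score under -3 and OD600 up to 0.15 on both plates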;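 note: plate controls were untreated wells for no effect and antibiotic for full effect; wells of about 80 µL received 100 nL stock; the first replicate is given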
PrP UTR inh = suppresses PrP 5' UTR mRNA reporter expression. cell-based PrP 5' UTR mRNA reporter, plate reader. hit rate 0.35% among 340,000. inhibition, % (concentration not given with the values). AID 488862;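 active = every replicate at 50% or more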;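 note: 0 = median of the neutral control wells; tested in H4 reporter cells; numbers are from one replicate; inactives centre near -14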
Autofluor counter = compound fluorescence in toxin protease inhibitor counterscreen | compound autofluorescence counterscreen, microsphere flow cytometry; active compounds read high | fluorescence intensity (concentration not given with the values) | hit rate 3.1% among 360,000 | AID 624483;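 active = at least 3 SD above the mean of all compounds, about 16000 in these data; inconclusive = too few beads counted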;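 note: 100 nL of 1 mM stock went into each well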
Sa RN4220 lethal = S. aureus RN4220 growth inhibition | OD600, 16 h | inhibition, % (no concentration beside the values) | hit rate 0.33% among 330,000;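 active = z-score of -3 or lower and OD600 up to 0.18 on both plates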;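 note: plate controls were untreated cells for no effect and reference antibiotic for full effect; stock transfer was 100 nL into about 80 µL; one replicate is shown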
Mtb hypoxia inh growth = also measured in Mtb hypoxia inh; calls as there; growth inhibition, %; measured here: M. tuberculosis growth (absorbance);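 0% = vehicle and 100% = reference antibiotic; read after six days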
The depositor's hits bear a star; ? = inconclusive; / = no result given.

smiles	BJeLR lethal	Mtb hypoxia inh	Mtb hypoxia inh growth	ugtP null kill	PrP UTR inh	Autofluor counter	Sa RN4220 lethal
Cc1ccc(S(=O)(=O)NCCC(=O)NCC(c2cccs2)N2CCOCC2)cc1 (stereo not drawn)	-5	-10	-8	-1	0	4018	1.0
Fc1ccccc1Oc1nc(-c2ccncc2)nc2ccccc12	15	-1	-5	6	-8	3431	3.4
O=C(NNC(=O)c1ccc(-c2ccccc2)cc1)Nc1ccccc1	-11	3	2	-8	-24	4686	-1.5
O=C(Nc1cccc(O)c1)c1ccc(NC(=O)C2CCCO2)cc1 (stereo not drawn)	1	-1	-2	7	-32	4657	7.8
Nc1ccccc1C(=O)Nc1ccc(Cl)cc1Cl	-11	6	2	9	-41	3028	5.3
Cc1nc2ccc(NC(=O)NCc3ccco3)cc2s1	-3	-4	-4	-1	-19	15430	-2.3
C[C@]12CC[C@H](O)CC1=CCC1C2CC[C@@]2(C)C1C[C@@H]1CC(=O)O[C@@H]12 (stereo partly drawn)	/	3	3	12	-15	3098	2.6
Cc1nnc(Oc2ccc([N+](=O)[O-])cc2)c2ccccc12	0	10	-5	6	-18	3405	3.7
O=C(NN1CCOCC1)c1cc(-c2ccc(Cl)c(Cl)c2)nc2ccccc12	-1	8	0	0	-20	2756	-0.3
O=Cc1c(C(=O)O)n(Cc2ccc(Cl)cc2)c2ccccc12	-9	4	-2	1	-10	2390	6.8
O=C(NCc1ccco1)C1CCN(S(=O)(=O)c2ccc(-n3cnnn3)cc2)CC1	-7	8	6	7	-5	2531	8.2
Cc1cc(C)cc(C(=O)NCC(=O)N2CCC(C(N)=O)CC2)c1	/	9	2	3	-14	5047	2.6
CCn1c(=O)n(CCc2ccccc2)c(=O)c2c3c(sc21)CCCC3	-2	4	2	-2	-19	22638*	-0.2
CC(C)(C)c1ccc(C(=O)C2CCCN(C(=O)c3ccccn3)C2)cc1 (stereo not drawn)	2	1	15	2	-33	5498	-0.9
Cc1cc(C)cc(N(CC(=O)Nc2ccccc2-c2ccccc2)S(=O)(=O)c2ccccc2)c1	-13	/	/	0	-11	2015	2.4
O=C(O)c1cc(-c2ccc(Cl)c(Cl)c2)n(-c2ccccc2)n1	11	9	1	-1	-16	3925	5.1
O=C(NCc1ccncc1)c1c(F)c(F)c(F)c(F)c1F	14	6	0	0	-22	7504	-2.0
COC(=O)c1cc2nc(-c3ccc(C)cc3)cc(C(F)(F)F)n2n1	-2	0	-2	2	-23	2691	5.1
CC(C)(CNC(=O)c1sc2cc(Cl)ccc2c1Cl)N1CCOCC1	-13	6	0	0	-17	?	7.7
O=C(Nc1cccc(Cl)c1Cl)c1snnc1-c1ccccc1	-4	/	/	-3	-11	4753	11

Carrying on.
smiles	BJeLR lethal	Mtb hypoxia inh	Mtb hypoxia inh growth	ugtP null kill	PrP UTR inh	Autofluor counter	Sa RN4220 lethal
COc1ccc(S(=O)(=O)N2CCC(NC(=O)OCc3c(Cl)cccc3Cl)CC2)cc1	6	7	19	5	-11	4448	1.1
COc1ccc(NC(=O)C(c2ccc(C)cc2)N(C)C(=O)CC2NC(=O)NC2=O)cc1 (stereo not drawn)	1	13	3	7	4	8570	3.1
CC(C#Cc1ccc2c(c1)COc1c3ccccc3nn1-2)OC(C)(C)C (stereo not drawn)	3	11	11	4	-30	4267	6.6
O=C(NCC(=O)N(Cc1ccccc1)C(C(=O)NCC1CCCO1)c1ccccc1)c1cccs1 (stereo not drawn)	-7	3	-3	-8	-15	10242	2.3
Cn1c(SCc2ccccc2)nnc1-c1ccco1	1	7	11	-2	-17	4503	1.2
COc1cc(C(C)=O)ccc1OCc1nnc(-c2ccccc2Br)o1	3	4	2	2	-27	3475	7.6
CC(=NNS(=O)(=O)c1ccc(Cl)cc1)c1ccncc1	/	9	2	1	/	/	2.1
COC(=O)Cc1[nH]n(-c2ccccc2)c(=O)c1C=Nc1ccc(C)cc1	-7	3	-14	12	-2	3686	1.5
CCOC(=O)Cc1nnc2c(Nc3ccc(Cl)cc3)nc3nonc3n12	11	11	8	-16	-16	4795	12
CCN(CC)S(=O)(=O)c1cccc(C(=O)NCC(c2ccccc2)N(C)C)c1 (stereo not drawn)	20	15	7	3	0	3567	3.5
Nc1ccccc1NC(=O)c1ccccc1	-3	7	-2	6	-38	2972	3.2
O=C(COC(=O)c1ccccc1C(=O)c1ccc(Cl)c([N+](=O)[O-])c1)NC1CCCCCC1	1	4	10	-3	-5	23481*	-0.3
CCCCC(=O)Nc1nn(CC)c2nc3c(C)cccc3cc12	2	12	10	-10	-13	3899	1.7
O=C(OCC(=O)N1CCOCC1)c1cc(F)c(F)cc1Cl	-2	17	17	6	-16	5690	2.8
Cc1cc(NN=Cc2ccc(N(C)C)cc2)nc(NCc2ccccc2)n1	/	6	14	-2	/	/	2.3
C=CCNC(=S)NNC(=O)c1csc(C)c1CC	-1	0	11	-7	/	7532	0.3
COn1c(SCc2cccc(Cl)c2)nc2ccccc2c1=O	2	5	-7	13	2	17254*	16
COC(=O)C(Cc1ccc(OC(=O)c2ccccc2Cl)cc1)N1Cc2ccccc2C1=O (stereo not drawn)	-2	/	/	2	-58	2210	1.8
O=C(c1ccco1)N1CCN(S(=O)(=O)c2ccc(Oc3ccccc3)cc2)CC1	4	4	2	3	-4	11583	2.3
Cc1ccccc1-c1cc2nc(C)c(Cl)c(=O)n2[nH]1	-3	15	3	2	-25	4048	3.1

Later entries:
smiles	BJeLR lethal	Mtb hypoxia inh	Mtb hypoxia inh growth	ugtP null kill	PrP UTR inh	Autofluor counter	Sa RN4220 lethal
N#CCc1c(C#N)c(N)nc(Nc2ccccc2)c1C#N	2	12	-5	4	-4	4410	5.5
O=C(NCCN1CCN(C(=O)Nc2ccccc2)CC1)Nc1ccccc1	9	/	/	7	15	4626	0.9
C[C@]12CCC3c4ccc(O)cc4CCC3C1CC(O)C2OC1OC(C(=O)O)C(O)C(O)C1O (stereo partly drawn)	/	-4	-1	-1	/	/	7.7
CC(=O)NN=C(C)C1COc2ccccc2O1 (stereo not drawn)	/	12	0	3	/	/	3.0
O=C(NCCS(=O)(=O)NCc1cccnc1)c1ccccc1	3	7	0	2	-5	?	1.7
CC(C)NC(=O)C1CCCN(c2nnc(-n3cccc3)s2)C1 (stereo not drawn)	-8	7	6	2	10	4447	6.2
COc1ccc(-c2cc3c(=O)n(CC(=O)Nc4cccc(Cl)c4)ncn3n2)cc1	-9	-5	-6	-6	-32	5727	4.2
O=C(COc1ccc(Cl)cc1Cl)NC(=O)NC1CCCC1	/	9	1	12	-91	5230	13
CC(=O)CSc1nc2cc3c(cc2cc1C#N)OCCO3	21	-1	1	3	-17	3414	11
CC1(c2ccc3ccccc3c2)NC(=O)N(CC(=O)N2CCN(S(=O)(=O)c3ccccc3F)CC2)C1=O (stereo not drawn)	7	1	5	2	-11	5820	-1.0
CC(C)(C)NC(=O)COc1ccc(-c2ccccc2)cc1	-2	0	4	12	-16	17169*	1.0
O=C(COc1ccccc1F)N1N=C(c2cccs2)CC1c1ccco1 (stereo not drawn)	/	2	-14	-3	-3	4338	2.8
CCN(CC(=O)NCc1ccc(Cl)cc1)C(=O)CN1C(=O)NC(CC)(c2ccccc2)C1=O (stereo not drawn)	10	4	-13	7	-11	4754	3.8
Cc1ccc(SCC(=O)NCC2CCCO2)cc1 (stereo not drawn)	2	12	3	10	-58	4461	4.7
O=C(O)CCCN1C(=O)C2C3CC(C2C1=O)C1C(c2ccccc2)c2sc(=O)n(-c4ccccc4)c2SC31 (stereo not drawn)	0	-2	-2	-7	-7	4219	4.6
COC(=O)CC1(C(=O)OC)Oc2ccc(Br)cc2C(=O)N1c1cc(Cl)c(Cl)cc1Cl (stereo not drawn)	1	13	2	0	-17	4630	1.8
COC(=O)c1ccc(N(CC(=O)NCC2CCCO2)C(=O)CCC(=O)Nc2cc(C)on2)cc1 (stereo not drawn)	2	7	9	17	-17	3466	3.9
C=CCc1ccc(OCC(O)CO)c(OC)c1 (stereo not drawn)	7	8	-4	5	-9	2475	1.7
Cc1nn(C)c(C)c1NS(=O)(=O)c1ccccc1	9	0	6	1	-16	3530	3.1
c1ccc(NCC2OCc3ccccc3CO2)cc1	-10	18	1	12	-29	2501	8.9

Later entries.
smiles	BJeLR lethal	Mtb hypoxia inh	Mtb hypoxia inh growth	ugtP null kill	PrP UTR inh	Autofluor counter	Sa RN4220 lethal
N#Cc1cc([N+](=O)[O-])ccc1NCC1CCCO1 (stereo not drawn)	-1	11	-2	1	12	4685	3.7
CC(=O)c1sc(NC(=O)c2c(F)cccc2F)nc1C	2	/	/	-7	-16	2789	-0.7
COc1ccc2c(c1)c1c3n2CCN(C)C3=NCC1	4	0	-9	15	16	2414	25
Cc1ccc(N(CCCCN2C(=O)c3ccccc3C2=O)C(=O)c2cccc([N+](=O)[O-])c2)cc1	6	9	13	0	-7	16296*	-7.7
CCCCN(CC)CCCNC(=O)c1ccc(CSc2nc3ccncc3[nH]2)cc1	6	10	-2	4	-17	3438	1.5
COc1ccc(Cc2nnc(NC(=O)C3CCN(C(=O)c4ccco4)CC3)s2)cc1	-5	16	2	12	-31	3881	-2.0
Cc1cc(NC(=O)COC(=O)C(Cc2ccccc2)NC(=O)c2ccco2)no1 (stereo not drawn)	/	4	7	2	-2	2955	-0.3
Oc1ccc(/C=N/Nc2cccc(Cl)n2)c(O)c1	-17	/	/	/	-81	3017	/
Oc1cccnc1Sc1cccc(C(F)(F)F)c1	1	0	11	3	-17	/	1.5
Cn1ccs/c1=N\C(=O)Nc1cccc(Cl)c1	-5	/	/	/	-64	2418	/
CCOC(=O)C(=NCCCN1CCOCC1)NNc1cccc(C(F)(F)F)c1	1	9	6	10	-23	3379	-1.3
C=CCNCCCCOc1ccc(OCC)cc1	4	/	/	-1	-19	3766	0.5
CCc1nc(SCC(=O)O)c2c3c(sc2n1)COC(C)(C)C3	6	-6	-5	-7	-17	3537	-3.4
CCNC(=O)CC1C(=O)N(c2ccc(F)cc2)C(=O)N1Cc1ccccn1 (stereo not drawn)	-2	10	10	8	-34	11554	5.3
Cc1nnc(SCC(=O)c2ccc(Cl)cc2)s1	2	4	4	6	-22	4856	3.0
COc1ccc(-c2ccc(CCC(=O)O)n2CC(=O)Nc2cccc(OC)c2)cc1	/	5	6	9	-1	4892	6.3
NNC(=O)c1cc2cc(Oc3ccccc3)ccc2[nH]1	-3	6	4	0	-16	3503	-0.6
CCNC(=O)c1ccc(N(C)S(=O)(=O)c2cccs2)cc1	5	1	7	0	-17	4740	2.0
CN1C(=O)CC(c2ccco2)Sc2ccccc21 (stereo not drawn)	-15	-1	-4	3	-2	21771*	3.1
CC(Cc1ccccc1)NC(=O)CC(c1ccccc1)c1ccccc1O (stereo not drawn)	0	6	-3	10	-17	3231	6.1

Other structures
smiles	BJeLR lethal	Mtb hypoxia inh	Mtb hypoxia inh growth	ugtP null kill	PrP UTR inh	Autofluor counter	Sa RN4220 lethal
NC(=O)C1CCCN(C(=O)c2ccc(Cl)cc2)C1 (stereo not drawn)	7	9	4	5	-47	8079	0.2
O=C(O)CCc1ccc(-c2ccccc2)o1	0	/	/	1	-23	3603	5.6
CN(C)c1nc(Cl)nc(N(C#N)CCOc2ccccc2)n1	-1	2	11	7	-25	3972	16
COc1ccc(OC)c(NC(=O)C2C3CC4OC(=O)C2C4C3)c1 (stereo not drawn)	/	/	/	6	-5	4700	-0.5
Cc1cccc(C(=O)N[C@H](C(=O)NCc2cccs2)C(C)C)c1	/	0	1	0	-13	/	3.8

Single records, from the list above. Order of screens: BJeLR lethal | Mtb hypoxia inh | Mtb hypoxia inh growth | ugtP null kill | PrP UTR inh | Autofluor counter | Sa RN4220 lethal
Profile of Cc1cccc(C(=O)N[C@H](C(=O)NCc2cccs2)C(C)C)c1 : / | 0 | 1 | 0 | -13 | / | 3.8
Profile of CN(C)c1nc(Cl)nc(N(C#N)CCOc2ccccc2)n1 : -1 | 2 | 11 | 7 | -25 | 3972 | 16
Profile of COc1ccc(OC)c(NC(=O)C2C3CC4OC(=O)C2C4C3)c1 (stereo not drawn) : / | / | / | 6 | -5 | 4700 | -0.5

Assay outcomes (PubChem BioAssay)
